Screens from PubChem.
NPYLR7 agonist – activates Aedes aegypti NPYLR7 receptor; actives 0.15% (n = 270,000); AID 1259423; activation, % at 10 µM; HEK293T NPYLR7/Galpha15, GCaMP6s calcium fluorescence; in the data active = activation above about 40%;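 also: 0% = vehicle and 100% = reference agonist at the receptor; some compounds past the cut are filed as inactive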
NPYLR7 agonist max-min – further read-out of NPYLR7 agonist, marked with its call; activation, %; measured here: Max-Min RFU normalised activation; some inactives read as strong as hits;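 span of the calcium signal over five minutes; 0% = vehicle and 100% = native peptide agonist; compound fluorescence can raise it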
An asterisk follows results filed as active; & = joins results of further samples. Some of the compounds tested, so the mix of outcomes need not match the whole.

`COCc1cc(N2CCN(c3cccc(C(F)(F)F)c3)CC2)nc(SCc2ccc(C(=O)NCC3CC3)cc2)n1` gave NPYLR7 agonist 13 and NPYLR7 agonist max-min 11.
Screening CN(Cc1ccco1)C(=O)c1cccc(S(=O)(=O)N2CCCCC2)c1 returned NPYLR7 agonist 1 and NPYLR7 agonist max-min -4.
`O=C(O)[C@H](Cc1c[nH]c2ccccc12)N1C(=O)c2ccccc2C1=O` gave NPYLR7 agonist 21 and NPYLR7 agonist max-min 3.
For Cc1ccc(-c2cc(CNCc3ccco3)no2)c(C)c1 the results were NPYLR7 agonist 24 and NPYLR7 agonist max-min 15.
CSc1ccc(CN2C(=O)C(C)Sc3cc(Cl)ccc32)cc1 (stereo not drawn) was read as NPYLR7 agonist 7 and NPYLR7 agonist max-min 3.
Cc1cc(Cl)ccc1NC1=NS(=O)(=O)c2cc([N+](=O)[O-])ccc21 was read as NPYLR7 agonist -19 and NPYLR7 agonist max-min -19.
For O=C(O)[C@H]1C[C@@H](C(=O)NC2CC2)CN(c2ncnc3sccc23)C1 the results were NPYLR7 agonist 3 and NPYLR7 agonist max-min 1.
CC(OC(=O)CSc1cnc2ccccc2n1)C(=O)Nc1sccc1C(N)=O (stereo not drawn) was read as NPYLR7 agonist 0 and NPYLR7 agonist max-min 24.
`CN(CCc1ccccn1)Cc1csc(Cc2ccc(F)cc2Cl)n1` gave NPYLR7 agonist 2 and NPYLR7 agonist max-min -6.
Screening CS(=O)(=O)/C(C#N)=C/c1cc(-c2cccs2)cs1 returned NPYLR7 agonist 4 and NPYLR7 agonist max-min 0.
CC1CN(C(=O)c2cc3ccsc3n2Cc2cccc(F)c2)CCN1C(=O)CCc1ccccc1 (stereo not drawn) was read as NPYLR7 agonist 0 and NPYLR7 agonist max-min 7.
`Cn1c(C2CCC2)nc2cc(C(=O)N3CCc4sccc4C3)cc(NC(=O)C3CCCO3)c21` (stereo not drawn) gave NPYLR7 agonist 8 and NPYLR7 agonist max-min 2.
Screening N#Cc1ccc(C(Nc2ccc(Br)c(F)c2)C(N)=O)cc1 (stereo not drawn) returned NPYLR7 agonist -2 and NPYLR7 agonist max-min 14.
Screening Cc1nc(-n2nc(C3CC3)cc2NC(=O)COc2ccccc2F)[nH]c(=O)c1C returned NPYLR7 agonist 4 and NPYLR7 agonist max-min 3.
For COC(=O)CCCC(=O)N1CCN(c2nc3nccc(-c4ccc(C(C)(C)C)cc4)n3n2)CC1 the results were NPYLR7 agonist 23 and NPYLR7 agonist max-min 13.
Screening O=C(NC(Cc1ccccc1)c1ccccc1)c1cc(-c2ccc([N+](=O)[O-])cc2)nn1-c1ccccc1Cl (stereo not drawn) returned NPYLR7 agonist -1 and NPYLR7 agonist max-min 3.
Screening COc1cc(C=CC(=O)N2CCC(C)CC(C)(C)C2)ccc1OCc1ccccc1 (stereo not drawn) returned NPYLR7 agonist -9 and NPYLR7 agonist max-min -13.
Screening Cn1c(=O)c2[nH]c(/C=N\NC(N)=S)nc2n(C)c1=O returned NPYLR7 agonist 2 and NPYLR7 agonist max-min 0.
CCc1nnsc1C(=O)NC1CC(C)N(C2CC2)C1 (stereo not drawn) was read as NPYLR7 agonist -1 and NPYLR7 agonist max-min -2.
For CCOc1ccccc1NC(=O)NC(Cc1ccccc1)C(=O)Nc1nnc(-c2ccc(OC)cc2)s1 (stereo not drawn) the results were NPYLR7 agonist 7 and NPYLR7 agonist max-min 16.
`O=C(CNC(=O)C1CC1(c1ccccc1)c1ccccc1)NCCc1ccc(O)cc1` (stereo not drawn) gave NPYLR7 agonist 2 and NPYLR7 agonist max-min -3.
`CN(C)c1ccc(C(=O)N2CCOC(COCc3c(Cl)cccc3Cl)C2)cc1` (stereo not drawn) gave NPYLR7 agonist 25 and NPYLR7 agonist max-min 31.
`CCN(CC)C(=O)C(NC(=O)c1ccc(F)cc1)C1CCN(S(=O)(=O)c2ccc(OC)cc2)CC1` (stereo not drawn) gave NPYLR7 agonist -2 and NPYLR7 agonist max-min -1.
Screening C#CCSc1nc(C)cc(C)c1C#N returned NPYLR7 agonist 2 and NPYLR7 agonist max-min 2.
For CC(C)Cc1nc(N2CCCN(C(=O)C3CCC3)CC2)c2c(-c3ccc4ccccc4c3)noc2n1 the results were NPYLR7 agonist 15 and NPYLR7 agonist max-min 26.
CCc1ncc2c(n1)CN(C(=O)C(c1ccccc1)c1ccccc1)C2 was read as NPYLR7 agonist 1 and NPYLR7 agonist max-min -3.
CCc1nc2ccc(C(=O)NCc3ccc4c(c3)OCO4)cn2c1N(C)Cc1ccc(OC)cc1 was read as NPYLR7 agonist 15 and NPYLR7 agonist max-min 9.
CCNC(=O)N(Cc1cccc(OC)c1)CC1CC(c2ccc(Cl)c(Cl)c2)=NO1 (stereo not drawn) was read as NPYLR7 agonist 26 and NPYLR7 agonist max-min 24.
COc1nc(-c2ccc(C)cc2)n(-c2ccc(NS(=O)(=O)c3ccc(F)cc3)cc2)n1 was read as NPYLR7 agonist 14 and NPYLR7 agonist max-min 13.
COc1ccc(Oc2c(CN(CC(C)C)CC(O)COCc3ccccc3)c(C)nn2-c2ccccc2)cc1 (stereo not drawn) was read as NPYLR7 agonist 10 and NPYLR7 agonist max-min 15.
CCc1cn[nH]c1NC(=O)C(C)Oc1ccc(C)cc1 (stereo not drawn) was read as NPYLR7 agonist 1 and NPYLR7 agonist max-min -9.
For COC(=O)CCCC(=O)Nc1ccc(-c2cccc(-c3cccc(OC)c3)n2)cc1 the results were NPYLR7 agonist -4 and NPYLR7 agonist max-min -7.
Screening C=CCOCC(O)CN(Cc1c(C)nn(-c2ccccc2)c1Oc1ccc(F)cc1F)CC1CCCO1 (stereo not drawn) returned NPYLR7 agonist 0 and NPYLR7 agonist max-min 2.
For CC(=O)N1CCC(N2CCOC(CCCc3ccccc3)C2)CC1 (stereo not drawn) the results were NPYLR7 agonist 12 and NPYLR7 agonist max-min 5.
Screening CN1CCNC(=O)C1CC(=O)O (stereo not drawn) returned NPYLR7 agonist 5 and NPYLR7 agonist max-min 10.
Screening CN(CCC1CCOCC1)C(=O)CCSc1ccc2c(c1)OCCO2 returned NPYLR7 agonist 28 and NPYLR7 agonist max-min 23.
For CCCC(=O)N1CCC1(C)C(=O)NS(=O)(=O)c1cccc(F)c1 (stereo not drawn) the results were NPYLR7 agonist 4 and NPYLR7 agonist max-min 2.
For CCCC12CN(C(=O)CCCCCNC(=O)OCc3ccccc3)CC1C(=O)NC(=O)N2 (stereo not drawn) the results were NPYLR7 agonist -7 and NPYLR7 agonist max-min -11.
Cc1cc(-c2c(-c3ccccc3)ncn2Cc2cc(CC(C)C)no2)n[nH]1 was read as NPYLR7 agonist 27 and NPYLR7 agonist max-min 12.
Screening COCCn1cc(NC(=O)NCCc2ccccc2OC)c2ccccc21 returned NPYLR7 agonist 8 and NPYLR7 agonist max-min 2.
Screening COc1cc(OC)cc(C(=O)N2CCN(c3nccc(-c4cccc(C(F)(F)F)c4)n3)CC2)c1 returned NPYLR7 agonist 3 and NPYLR7 agonist max-min 17.
`N#Cc1cccc(S(=O)(=O)Nc2ccccc2Oc2ccccc2)c1` gave NPYLR7 agonist 0 and NPYLR7 agonist max-min 0.
For COc1nn(C)cc1C(=O)Nc1cc(C)ccc1C the results were NPYLR7 agonist 2 and NPYLR7 agonist max-min 2.
`COc1ccc(CC(=O)NCC2CCCN(Cc3ccc(C4CCCC4)s3)C2)cc1` (stereo not drawn) gave NPYLR7 agonist 2 and NPYLR7 agonist max-min 2.
`Cc1ccc(C#N)c(Cl)n1` gave NPYLR7 agonist -3 and NPYLR7 agonist max-min 0.
`COc1ccccc1C(C)Nc1cc(=O)n2ccccc2n1` (stereo not drawn) gave NPYLR7 agonist 7&1 and NPYLR7 agonist max-min 1&-1.
O=C(C1CCN(C(=O)[C@@H]2CCCN2C(=O)Nc2cccc(Cl)c2Cl)CC1)N1CCCCC1 was read as NPYLR7 agonist 14 and NPYLR7 agonist max-min 17.
For COc1ccc(C2CC(c3ccc(F)cc3)=NN2C(=O)CN2CCCC2)cc1 (stereo not drawn) the results were NPYLR7 agonist -2 and NPYLR7 agonist max-min 6.
For Cc1cc(C)n(C(=O)CCCCCCCCC(=O)n2nc(C)cc2C)n1 the results were NPYLR7 agonist -7 and NPYLR7 agonist max-min -13.
For COc1cc(C=NN2CCN(Cc3ccc(C)cc3)CC2)cc(OC)c1O the results were NPYLR7 agonist -3 and NPYLR7 agonist max-min -6.
`Cc1ccc(C2(O)CCN(C(=O)c3cnn(-c4ccccn4)c3C)CC2)nc1` gave NPYLR7 agonist -1 and NPYLR7 agonist max-min 0.
`CCOc1ccc(S(=O)(=O)NCCn2nc(-c3ccc(OC)cc3)ccc2=O)c(OCC)c1` gave NPYLR7 agonist 0 and NPYLR7 agonist max-min -1.
`O=C1CC(N2CCN(Cc3ccccc3)CC2)C(=O)N1c1ccccc1F` (stereo not drawn) gave NPYLR7 agonist -2 and NPYLR7 agonist max-min -5.
For Cc1ccc(C(=O)N2CCN(c3cc(Cl)nc(SCC(=O)NCc4ccco4)n3)CC2C)cc1 (stereo not drawn) the results were NPYLR7 agonist -5 and NPYLR7 agonist max-min -3.
`Cc1ccccc1-c1ncc(CN(C)Cc2ncc[nH]2)s1` gave NPYLR7 agonist 11 and NPYLR7 agonist max-min 0.
For Cc1ccc(NS(=O)(=O)c2cc(F)cc(F)c2)cc1C(=O)O the results were NPYLR7 agonist 0 and NPYLR7 agonist max-min -6.
Cc1cc(C)cc(N2CCN(C(=O)CC3NC(=O)NC3=O)CC2=O)c1 (stereo not drawn) was read as NPYLR7 agonist 11 and NPYLR7 agonist max-min 6.
`COc1nn2ccsc2c1C(=O)NCCC(=O)O` gave NPYLR7 agonist 24 and NPYLR7 agonist max-min 16.
CCOC(=O)C1CCN(C(=O)c2cc(-c3ccc(Cl)cc3)n(-c3ccccc3OC)c2C)CC1 was read as NPYLR7 agonist -13 and NPYLR7 agonist max-min -14.
COc1ccc2c(C)nc(Nc3nc(O)c(C)c(=O)[nH]3)nc2c1 was read as NPYLR7 agonist 1 and NPYLR7 agonist max-min 0.
Screening Cc1ccc(F)c(N2C(=O)CSC2c2ccc(NC(=O)COc3ccccc3)cc2)c1 (stereo not drawn) returned NPYLR7 agonist -3 and NPYLR7 agonist max-min 3.
Screening C=CCNC(=O)Cn1c(CO)cnc1SCc1ccc(C)cc1 returned NPYLR7 agonist 7 and NPYLR7 agonist max-min 2.
For O=C(c1csnn1)N1CCC(C2CCN(Cc3cccc(F)c3F)CC2)C1 (stereo not drawn) the results were NPYLR7 agonist 0 and NPYLR7 agonist max-min -3.
`CCCCS(=O)(=O)N1C[C@@H](CO)[C@@H]2Oc3ccccc3[C@@H]21` gave NPYLR7 agonist 2 and NPYLR7 agonist max-min 5.
`COc1ccc(C(O)=C2C(=O)C(=O)N(CCN3CCOCC3)C2c2ccc(O)cc2)c(C)c1` (stereo not drawn) gave NPYLR7 agonist -7 and NPYLR7 agonist max-min -12.
Screening C=CCN(CC=C)c1cc(Cl)nc(SCc2ccc(C(=O)NCc3cccc(C(F)(F)F)c3)cc2)n1 returned NPYLR7 agonist 14 and NPYLR7 agonist max-min 11.
For Cc1nnc2ccc(-c3cccc(NC(=O)c4cccc(C(F)(F)F)c4)c3)nn12 the results were NPYLR7 agonist -15 and NPYLR7 agonist max-min -9.
Screening Cn1ncc(NC(Cc2ccccc2)c2ccccc2)c(Cl)c1=O (stereo not drawn) returned NPYLR7 agonist -23&2 and NPYLR7 agonist max-min -25&8.
Cn1c(NCCN2CCCC2)nc2cc(-c3ccsc3)sc2c1=O was read as NPYLR7 agonist -6 and NPYLR7 agonist max-min -6.
Cc1noc(C(C)C)c1C(=O)NC1=NCCS1 was read as NPYLR7 agonist -2 and NPYLR7 agonist max-min 124.
Screening CC12CCC(CC1=NN=Cc1cc3c(cc1[N+](=O)[O-])OCO3)C2(C)C (stereo not drawn) returned NPYLR7 agonist 0 and NPYLR7 agonist max-min 6.
COc1cc(NC(=O)Cn2nc([N+](=O)[O-])c(Br)c2C)cc([N+](=O)[O-])c1 was read as NPYLR7 agonist -5 and NPYLR7 agonist max-min -8.
Screening Cc1nonc1OCCNC(=O)C1(N2CCCCC2)Cc2ccccc2C1 returned NPYLR7 agonist 1 and NPYLR7 agonist max-min -1.
Screening Cc1nn(Cc2ccccc2)c2c1C(c1ccc(C#CCO)s1)CC(=O)N2 (stereo not drawn) returned NPYLR7 agonist 1 and NPYLR7 agonist max-min 0.

Entries listed so far containing a thiophene ring, fused or not, in the order listed:
For O=C(O)[C@H]1C[C@@H](C(=O)NC2CC2)CN(c2ncnc3sccc23)C1 the results were NPYLR7 agonist 3 and NPYLR7 agonist max-min 1.
CC(OC(=O)CSc1cnc2ccccc2n1)C(=O)Nc1sccc1C(N)=O (stereo not drawn) was read as NPYLR7 agonist 0 and NPYLR7 agonist max-min 24.
Screening CS(=O)(=O)/C(C#N)=C/c1cc(-c2cccs2)cs1 returned NPYLR7 agonist 4 and NPYLR7 agonist max-min 0.
CC1CN(C(=O)c2cc3ccsc3n2Cc2cccc(F)c2)CCN1C(=O)CCc1ccccc1 (stereo not drawn) was read as NPYLR7 agonist 0 and NPYLR7 agonist max-min 7.
`Cn1c(C2CCC2)nc2cc(C(=O)N3CCc4sccc4C3)cc(NC(=O)C3CCCO3)c21` (stereo not drawn) gave NPYLR7 agonist 8 and NPYLR7 agonist max-min 2.
`COc1ccc(CC(=O)NCC2CCCN(Cc3ccc(C4CCCC4)s3)C2)cc1` (stereo not drawn) gave NPYLR7 agonist 2 and NPYLR7 agonist max-min 2.
Cn1c(NCCN2CCCC2)nc2cc(-c3ccsc3)sc2c1=O was read as NPYLR7 agonist -6 and NPYLR7 agonist max-min -6.
Screening Cc1nn(Cc2ccccc2)c2c1C(c1ccc(C#CCO)s1)CC(=O)N2 (stereo not drawn) returned NPYLR7 agonist 1 and NPYLR7 agonist max-min 0.
